# Compound activity from PubChem.
# GLA inh pH 4.5: alpha-galactosidase A (human) inhibition, pH 4.5; 230,000 tested, under 10 active; activity change, negative = inhibition, % at 105 µM; P06280; purified enzyme, 4-MU-alpha-Gal fluorescence, pH 4.5; AID 1467; inconclusive = small, poorly fitted or top-dose-only inhibition, or a rising curve; inactive = flat fitted curve, though single readings scatter; no compound was filed as active;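 note: 0% = full activity with enzyme and -100% = basal without enzyme; dose as in the result columns while the protocol names 77 µM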
# Target sequence (P06280 whole entry, looked up): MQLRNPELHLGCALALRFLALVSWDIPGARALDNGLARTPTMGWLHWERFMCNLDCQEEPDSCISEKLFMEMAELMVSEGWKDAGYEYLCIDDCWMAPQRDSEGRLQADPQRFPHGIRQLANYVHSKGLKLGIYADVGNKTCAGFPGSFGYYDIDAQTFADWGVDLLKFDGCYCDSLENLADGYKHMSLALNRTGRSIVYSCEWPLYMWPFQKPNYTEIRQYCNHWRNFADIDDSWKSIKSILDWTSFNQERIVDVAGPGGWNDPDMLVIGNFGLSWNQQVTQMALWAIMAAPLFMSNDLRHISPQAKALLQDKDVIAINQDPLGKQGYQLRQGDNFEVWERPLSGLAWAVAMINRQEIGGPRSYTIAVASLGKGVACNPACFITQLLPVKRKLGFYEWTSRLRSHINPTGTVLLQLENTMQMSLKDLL
# Rango-impB inh: inhibitors of Rango-importin beta complex formation | Q14974 | 340,000 tested, 0.031% active | Rango CFP/YFP FRET sensor + importin beta, 45 min | Potency, µM (titrated, usually from 92.2 µM), for inactives: at the highest dose inhibition of complex formation; active = rising FRET ratio curve, often small or poorly fitted; inconclusive = mostly compound fluorescence or quenching in the first reads; inactive = flat curves in all reads;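 note: potency is the fitted concentration of half-maximal effect; 0% = DMSO wells and 100% = buffer wells lacking importin beta; nearly all actives have a fitted effect of over 15% in size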
#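 FRET biosensor (snurportin 1 IBB flanked by EYFP and cerulean), 50 nM, with compound 5 min, then 0.125 microM importin beta in PBS, 1 mM DTT, 0.02% Tween-20, 0.1% BSA. CFP/YFP ratio read after 45 min at room temperature; pre-read flags interference.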
# Rango dissoc inh: prevents RanGTP from dissociating the Rango-importin beta complex; Potency, µM (highest dose often 46.1 µM), without a hit: at the highest dose activity change, negative = inhibition; 340,000 tested, 0.071% active; Biochemical FRET Rango-importin beta, RanGTP-induced dissociation; AID 540253; O95149+P62826; active means falling FRET ratio curve, often poorly fitted, with flat reads before Ran was added; inconclusive means other falling curves, or compound fluorescence or quenching; inactive means flat or rising ratio curve;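 note: potency is the fitted concentration of half-maximal effect; % of control where 0% means no effect; nearly all actives have a fitted effect of over 45% in size; -100% = wells without RanGTP and RCC1; the record marks most hits as doubtful in a second field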
#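 Quantitative HTS using a FRET biosensor: 0.1 uM Rango, 0.25 uM importin beta, 0.6 uM Ran, 2 mM GTP, 0.2 uM RCC1 final, PBS with DTT, Tween-20 and BSA. Post-read taken 45 min after Ran addition.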
# miR-21 FLuc: miR-21 reporter, rising signal; HeLa miR-21 FLuc reporter, luciferase, 48 h; Potency, µM (titrated, usually from 38.3 µM), for inactives: at the highest dose reporter change, positive = more light; 340,000 tested, under 10 active; active = well fitted rising curve with a large enough effect; inconclusive = small, poorly fitted or top-dose-only effect; inactive = no such curve, though single readings can be large or run the other way;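 note: % of control where 0% means no effect; miR-21 action dims this reporter so a rising signal means less miR-21 action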
#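 Compounds were titrated across several concentrations (up to approximately 40 uM) and incubated 48 hours with HeLa miR-21-FLuc reporter cells (miR-21 target sequence downstream of FLuc, endogenous miR-21). Readout was firefly luciferase luminescence after lytic detection reagent.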
# An asterisk follows results filed as active; u = inconclusive; x = no result given; & = joins results of further samples. This is a subset; count on the stated rates, not on these rows.
SMILES,GLA inh pH 4.5,Rango-impB inh,Rango dissoc inh,miR-21 FLuc
NC(=O)C1CCCN(Cc2c(C(=O)N3CCc4ccccc4C3)nc3ccc(Cl)cn23)C1 (stereo unspecified),x,-3.1%,0.0%,-5.3%
Cc1csc(=N)n1-c1ccc(Cl)cc1,-14.0,1.7%,1.9%,-36.6%
CC(C)(C)c1ccc(C(=O)NNc2cc(N3CCOCC3)nc(N3CCOCC3)n2)cc1,4.1,-4.4%,1.5%,3.3%
COc1ccc(CNC(=O)COC(=O)Cc2ccc(Cl)cc2Cl)cc1,0.4,1.2%,9.5%,-1.9%
CN(C)CCCNC(=O)c1cc(Br)ccc1Cl,-0.5,-1.5%,6.7%,-2.4%
Cc1ccc(S(=O)(=O)N2CCOCC2)cc1C(=O)NC1CCCCCC1,x,0.1%,0.8%,-3.5%
CC(=O)N1c2ccccc2NC2=C(C(=O)CC(C)(C)C2)C1c1cccn1C (stereo unspecified),3.6,4.1%,6.0%,-0.8%
COc1cc(OC)c(OC)cc1CN1CCN(Cc2ccc(SC)cc2)CC1,-6.8,1.9%,-4.5%,10.0%
Cc1ccc(S(=O)(=O)NCCc2nnc3ccc(SCC(=O)Nc4nc5ccccc5s4)nn23)cc1,4.9,x,x,-1.4%
Cc1nc(Nc2ccccc2)c2oc3ccc(Cl)cc3c2n1,x,-1.5%,-12.4%,-37.3%
O=C(CSc1nc2ccccc2c(=O)[nH]1)N1CCCCCC1,-1.1,-3.7%,-0.1%,-28.6%
CCc1ccccc1NC(=O)CSc1nnc([C@@H]2CCCN2C(=O)OC(C)(C)C)o1,6.8,-1.7%,-5.4%,14.5%
CCC(C)n1cnc2c(c1=O)c1nc3ccccc3nc1n2Cc1ccc2c(c1)OCO2 (stereo unspecified),2.3,x,x,0.6%
COc1ccc2c(c1)[C@H]1[C@H](CO2)[C@H](c2ccccc2)[C@]2(C)C(=O)Nc3ccc(F)cc3C(=O)N12,x,-0.2%,-8.2%,x
Cc1ccc(C)c(S(=O)(=O)N2CCCOC2CNC(=O)C(=O)NC2CC2)c1 (stereo unspecified),x,-1.1%,0.7%,-1.9%
CCNC(=O)NC(=O)COc1ccccc1C#N,-0.3,3.0%,-3.5%,-43.3%
COc1ccc2c(c1)N(S(=O)(=O)c1ccccc1)CCC2=O,-8.3,1.2%,5.5%,-8.6%
Cc1nc2ccccc2c(=O)n1N(c1ccccc1)c1ccccc1,-3.8,-3.3%,1.8%,-1.1%
O=C(NCCCc1ccncc1)C1CCC(=O)N(Cc2cccc(C(F)(F)F)c2)C1 (stereo unspecified),x,2.1%,-1.0%,-0.8%
O=C(O)c1ccc(-c2ccccc2C(F)(F)F)o1,0.3,4.1%,18.2%,-6.9%
NC(=O)CSc1nc(-c2ccccc2Cl)ns1,-1.1,-2.8%,-7.6%,-47.6%
COc1ccc(NC(=O)c2sc(NC(=O)C3CC3)nc2C)cc1,x,0.0%,4.1%,-11.1%
c1ccc(-c2[nH]ncc2-c2nc3ccccc3[nH]2)cc1,4.5,1.9%,2.6%,-4.1%
O=S(=O)(NCc1nnc2c(C(F)(F)F)cc(Cl)cn12)c1ccccc1,x,-5.6%,-20.7%,1.4%
CSc1ccccc1NC(=O)c1noc2c1CCC2,-1.0,-3.1%,-6.0%,-30.5%
Cc1nc2ccccc2c(=O)n1NC(=O)c1c(O)c2ccccc2n(C)c1=O,-4.2,x,x,-2.6%
Cc1nn2c(nc1=O)NNC2(C)C(C)(C)C (stereo unspecified),-11.8,-2.0%,1.8%,20.7%
CN(CC(=O)NCc1ccc(Cl)cc1)S(=O)(=O)c1cccs1,x,3.5%,1.9%,-9.2%
Cc1ccc2c(c1)c1nc3ccccc3nc1n2C,x,u,u,-17.2%
CC(=O)Nc1cc(NC(C)=O)cc(C(=O)OCC(=O)N(c2ccccc2)C2CCS(=O)(=O)C2)c1 (stereo unspecified),x,-4.2%,-1.2%,x
Cc1ccc(N2C(=O)CC(Cn3nc(C)cc3C)C2=O)cc1 (stereo unspecified),-11.8,-5.5%,15.5%,0.1%
CCn1c(COc2ccccc2)nnc1SCC(=O)NC1CC1,x,-0.9%,-14.4%,-2.3%
O=C(CN1C(=O)CC(c2ccccc2)S(=O)(=O)c2ccccc21)NC1CCCC1 (stereo unspecified),-3.0,1.6%,7.4%,-2.3%
CC(=O)C1=C(O)C(=O)N(Cc2ccco2)C1c1ccc2c(c1)OCO2 (stereo unspecified),1.6,-0.2%,u,-6.4%
CCOC(=O)C1CCN(Cc2cnc(Oc3ccc(C(C)(C)C)cc3)s2)CC1,-26.2,4.5%,-0.2%,-2.3%
O=C(Cn1cc([N+](=O)[O-])cn1)NCCc1nc2ccccc2[nH]1,-2.4,u,22.8%,1.2%
Cc1ccc(C(=O)Nc2nc(=O)[nH]s2)cc1,4.3&12.1,-2.4%&-0.3%,-6.6%&-0.5%,-8.3%&2.8%
COc1cccc(CNC(=O)c2ccc(N3CCOCC3)c([N+](=O)[O-])c2)c1,x,0.5%,13.5%,-14.2%
Cc1ccc2c(CC(=O)NNC(=O)c3ccccc3O)coc2c1,x,u,-15.0%,x
NC(=O)CCS(=O)(=O)c1ccccc1,1.2,-1.0%,1.0%,-3.6%
CC1=C(C)Cc2c(OC(=O)c3ccccc3)ccc(OC(=O)c3ccccc3)c2C1,5.7,x,x,-2.9%
O=C1CC(N2CCN(c3nc4ccccc4s3)CC2)C(=O)N1Cc1cccs1 (stereo unspecified),-5.3,0.9%,22.2%,0.9%
CCc1ccc2c(c1)C1(NN=C(c3ccc(C)cc3)S1)C(=O)N2 (stereo unspecified),-9.2,u,u,1.5%
COc1ccc(/C=C/C(=O)Nc2cc(F)ccc2C)cc1S(=O)(=O)N1CCOCC1,-1.7,-2.5%,-5.9%,0.3%
O=C(c1ccc2c(c1)N(Cc1ccccc1)C(=O)c1ccccc1S2)N1CCCC1,-17.6,-2.0%,-0.8%,11.1%
CC1=CC(C)(C)Nc2ccc(OC(=O)c3cccnc3)cc21,0.0,u,-18.9%,u
CC(=NNC(=S)Nc1ccc(C)cc1)c1ccccn1,x,4.5%,0.9%,x
Cc1cccc(-n2c(O)c(C=NC3CCS(=O)(=O)C3)c3ccccc3c2=O)c1C (stereo unspecified),-14.5,-3.5%,-6.9%,6.5%
O=C(O)c1ccc(Cn2nnc3sc4c(c3c2=O)CCCC4)cc1,-1.7,0.2%,-11.2%,-33.8%
O=C(Cn1cnc2ccccc21)N/N=C/C(Br)=C/c1ccccc1,1.7,-1.9%,5.4%,4.5%
CCOC(=O)Cn1c(=N)n(Cc2ccccc2F)c2ccccc21,-3.0,0.0%,-9.8%,-1.8%
O=C1C=C(c2cccc(O)c2)CCC1,x,-2.7%,-20.9%,x
CCCc1ccc(C2C3=C(CC(C)(C)CC3=O)NC3=C2C(=O)c2ccccc23)cc1 (stereo unspecified),-8.2,3.1%,-25.2%,u
COC(=O)c1ccc2c(=O)n(Cc3ccc4c(c3)OCO4)c(=S)[nH]c2c1,x,4.3%,-8.1%,0.7%
COc1ccc(CC(NC(C)=O)C(=O)NC2CCN(c3nc(C)cc(C)c3C#N)CC2)cc1OC (stereo unspecified),1.8,-2.0%,-10.2%,3.8%
Cc1ccc(C(=O)c2ccccc2C(=O)OCC(=O)NCC2CCCO2)cc1 (stereo unspecified),3.3,-2.2%,2.1%,-8.4%
Nc1nonc1-n1nnc(C(=O)N/N=C/c2ccccc2F)c1CN1CCc2ccccc21,x,-1.7%,-7.2%,-10.3%
Cc1ccc(S(=O)(=O)N2CCOCC2)cc1C(=O)Nc1cccc(S(=O)(=O)N2CCCC2)c1,1.2,0.0%,9.7%,3.5%
COc1ccc2nc(NC(=O)c3sc4nc(C)cc(C)c4c3N)sc2c1,-3.7,u,u,-33.1%
CCN(CC)CCCNCC(=O)Nc1ccc(OC)c(Cl)c1,3.5,x,x,-10.2%

# (more compounds)
SMILES,GLA inh pH 4.5,Rango-impB inh,Rango dissoc inh,miR-21 FLuc
CCN(CC)S(=O)(=O)c1ccc(N2CCCCC2)c(NC(=O)/C=C/c2cc(OC)c(OC)c(OC)c2)c1,1.9,-1.8%,0.4%,3.2%
Cc1nc(-c2cccc3ccccc23)ccc1C(=O)O,-4.5,-4.1%,-6.3%,-6.9%
CC(=O)c1cccc(NC(=O)c2oc(C)nc2C)c1,1.9,-0.3%,9.8%,-5.0%
Clc1ccc(N2CCN(Cc3ccc(Br)o3)CC2)cc1,x,1.5%,-14.2%,8.1%
NC(=O)C1CCN(C(=O)CCNS(=O)(=O)c2cc(Br)cnc2N)CC1,x,-7.3%,-4.1%,1.0%
CC(C)C[C@@H](COc1ccccc1)N1CCN(Cc2ccccc2)CCC1=O,x,0.0%,-28.3%,0.2%
O=C(NNc1ccc(-c2csnn2)cc1)c1cc(Cl)cc(Cl)c1,0.6,-1.4%,11.9%,17.9%
CN(C)C1(CNC(=O)C2CCN(S(=O)(=O)c3c(Cl)cccc3Cl)CC2)CCCCC1,x,-2.1%,0.5%,x
O=C1/C(=C/c2ccncc2)Oc2cc(OS(=O)(=O)c3ccccc3)ccc21,-1.3,-1.6%,-27.1%,0.5%
Cc1cc(C)n(CCC(=O)N=Nc2c(O)[nH]c3ccccc23)n1,-5.1,-1.5%,-2.8%,-2.5%
CN(NS(=O)(=O)c1ccccc1)c1nc2ccccc2nc1C(F)(F)F,-10.6,-0.4%,7.5%,-4.0%
O=C1c2ccccc2C(=Nc2ccccc2)C1c1cccc(Br)c1 (stereo unspecified),5.0,4.3%,12.2%,-2.5%
Cc1nn(-c2ccccc2)nc1C(=O)Nc1nnc(C(F)(F)F)s1,-9.0,-1.0%,2.3%,-2.4%
Cc1cc(N2CCOCC2)nc(SCC(=O)c2ccc(Cl)cc2)n1,-11.0,1.4%,u,-8.9%
O=C(Nc1ccccc1Br)C1CCC(=O)N1Cc1ccccc1Cl (stereo unspecified),-1.6,-0.7%,1.3%,-2.8%
COc1ccc(NC(C)=O)cc1C#N,7.7,3.3%,-10.5%,-0.8%
NC(=NCCc1ccccc1)NS(=O)(=O)c1ccc(F)cc1,-8.5,-0.6%,0.0%,-2.4%
COc1ccc(NC2CCCN(C(=O)c3csc(C)n3)C2)cc1 (stereo unspecified),x,0.9%,-1.0%,0.9%
C=CCNC(=O)COC(=O)c1ccccc1C(=O)N(C)C1CCCCC1,5.6,0.8%,29.8%,-2.7%
CSc1ncccc1C(=O)NCC(=O)Nc1ccc(F)c(F)c1,x,-5.7%,-11.0%,-5.0%
Cc1noc(C)c1COc1ccc(C(=O)NCC(c2c(F)cccc2Cl)N(C)C)cc1 (stereo unspecified),x,-1.3%,-17.8%,x
O=S(=O)(Nn1cnnc1)c1ccc(F)cc1,-1.9,4.0%,0.3%,1.4%
O=C(CSc1nnc(CNC(=O)c2ccccc2)o1)Nc1nccs1,x,-0.3%,7.0%,-0.1%
CCOC(=O)c1ccccc1NC(=O)c1cccc2c1C(=O)N(C1CCN(C(=O)OCC)CC1)C2,-10.8,-3.7%,-13.0%,2.7%
CC(=O)NCCC(=O)Nc1nc(-c2ccccc2Cl)cs1,11.5,-4.7%,-16.3%,-3.1%
C[C@H]1CN([C@@H](C)CO)C(=O)c2cccc(NC(=O)c3ccc(-c4nccs4)cc3)c2O[C@@H]1CN(C)C(=O)NC1CCCCC1,x,1.2%,-5.9%,x

# One compound at a time, from the list above. Values in the order: GLA inh pH 4.5	Rango-impB inh	Rango dissoc inh	miR-21 FLuc
# Shown for CCOC(=O)c1ccccc1NC(=O)c1cccc2c1C(=O)N(C1CCN(C(=O)OCC)CC1)C2 → -10.8	-3.7%	-13.0%	2.7%
# Shown for CC(=O)NCCC(=O)Nc1nc(-c2ccccc2Cl)cs1 → 11.5	-4.7%	-16.3%	-3.1%
# Shown for C[C@H]1CN([C@@H](C)CO)C(=O)c2cccc(NC(=O)c3ccc(-c4nccs4)cc3)c2O[C@@H]1CN(C)C(=O)NC1CCCCC1 → x	1.2%	-5.9%	x
